Screening data: PubChem BioAssay, ICCB-Longwood Screening Facility, Harvard Medical School
VACV E9 pol inh = inhibitors of vaccinia virus processive DNA synthesis (E9 polymerase); in vitro processive DNA synthesis, absorbance read-out; active compounds read low; some inactives read as strong as hits; 46,000 compounds, 0.94% hits; normalized absorbance, % (no concentration beside the values);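 active = replicate mean up to 90% and picked by the depositor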;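 note: 100% = median of the test wells of a plate; 100 nL library stock went into each well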
* marks the source's active call; other numbers are inactive results; & = joins results of further samples. A portion of the library; count on the stated rates, not on these rows.

Structure | VACV E9 pol inh
CC(NC(=O)COc1ccccc1)C(c1ccccc1)N1CCN(C)CC1 (stereo not drawn) | 90
Cc1ccc(S(=O)(=O)c2nnn3c2nc(N2CCCC2)c2ccccc23)cc1 | 102
CC1CCCC(C)N1C(=O)c1ccccc1C(=O)O (stereo not drawn) | 100
COC(=O)CSc1nc(-c2cccs2)ccc1C#N | 98
CCCCc1ccc(-c2nc3ccccc3c(=O)o2)cc1 | 98
O=C(COC(=O)c1cc(C(F)(F)F)cc(C(F)(F)F)c1)NC1CC1 | 104
COc1ccccc1CNCC(O)Cn1c2ccccc2c2ccccc21 (stereo not drawn) | 112
Cc1ccccc1-c1nccc2ccccc12 | 100
CC(C)(C)Cc1nc(C2(c3ccc(Cl)cc3Cl)CC2)no1 | 101
Cc1ccc2c(c1)c1cccc3c1n2CCN3CCC(N)=O | 63*
C1CCC[C@H]2CCCN3CC[C@H](CCCCCC[C@@H]4CCCN5CC[C@H](CC1)O[C@H]45)O[C@H]23 | 101
O=C(OCC(=O)N1CCCC1)c1cccc(Br)c1 | 99
c1ccc(C2=Nc3ccccc3N=C(c3ccccc3)C2)cc1 | 102
CCOC(=O)N=c1oc2ccccc2o1 | 100
COc1ccc2ncc(C(=O)c3ccccc3)c(N3CCCCC3)c2c1 | 106
CN(C1CC2C=CC1C2)S(=O)(=O)c1cc(C(F)(F)F)cc(C(F)(F)F)c1 (stereo not drawn) | 101
OC1(c2ccccc2)C/C(=N\n2cnnc2)C=C1c1ccccc1 (stereo not drawn) | 104
O=C(Nc1cccnc1)C1c2ccccc2Oc2ccccc21 | 100
COc1c(C(=O)O)csc1Cl | 102
CC(=O)Nc1ccc(NC(=O)Nc2ccccc2)cc1 | 106
O=C(Nc1ccc(Cl)cc1)c1ccn[nH]1 | 99
O=C(O)CCCNc1ccccc1C(=O)O | 103
S=c1n(CN(Cc2ccccc2)Cc2ccccc2)nnn1-c1ccccc1 | 100
CCCNC(=O)c1sc2c(c1C(=O)Nc1ccccn1)CCCC2 | 92
O=c1c2cc(-c3ccccc3)sc2ncn1Cc1ccc(F)cc1 | 93
Cc1cccc(C(=O)N(c2ccccn2)C(C)c2ccco2)c1 (stereo not drawn) | 108
O=C(NC1CCCC1)C1CC(=O)N(CCc2ccccc2)C1 (stereo not drawn) | 94
Cc1nccc2[nH]c(=O)c(C(=O)NCCCN3CCC(Cc4ccccc4)CC3)cc12 | 90
COc1ccc(CC(=O)Sc2nc3ccccc3s2)cc1 | 101
O=C(NCc1ccccc1)C1CCCN(S(=O)(=O)N2CCCCCC2)C1 (stereo not drawn) | 97
NC(=O)c1cccc(N)c1 | 101&99
C=CCn1c(CCNC(=O)c2ccccc2)nc2ccccc21 | 101
COC(=O)c1c[nH]c(=O)c2ccccc12 | 116
Cc1ccc(C(=O)Oc2ccc3c(c2)ncn3C)cc1 | 92
CSC1=NC(c2ccc(N(C)C)cc2)NN1 (stereo not drawn) | 88
Cn1c(C(=O)N2CCN(Cc3ccccc3)CC2)cc2c(=O)n(C)c3ccccc3c21 | 95
Cc1cc(=O)[nH]c(=S)[nH]1 | 100
C=CCNC(=O)c1c(N)n(CCc2ccccc2F)c2nc3ccccc3nc12 | 97
COC(=O)c1ccccc1NC(=O)CS(=O)(=O)c1nnnn1-c1cccc2ccccc12 | 85
O=C(O)c1c(F)c(F)cc2ccccc12 | 100
CCn1c(CCCNC(=O)c2cccs2)nc2ccccc21 | 98
N#Cc1c(-n2cccc2)sc2c1CCN(c1cccc(F)n1)C2 | 80
CC[N+](CC)(CC)Cc1ccccc1 | 103
Cc1ccccc1N1C(=O)CSCC1=O | 106
Nc1c(Br)cc2oc(-c3ccccc3F)nc2c1Br | 104
N#CC(C#N)CC(=O)c1ccccc1 | 121
c1ccc(OCc2nc3c4c5c(sc4ncn3n2)CCCC5)cc1 | 96
CCOC(=O)c1cnc2ccc(C(=O)OC)cc2c1N1CC2(C)CC1CC(C)(C)C2 (stereo not drawn) | 100
Nc1nc(SC/C=C/c2ccccc2)nc2sc3c(c12)CCCC3 | 100
Cc1cccc(-n2c(N)cc(=O)[nH]c2=S)c1 | 101

Next part
Structure | VACV E9 pol inh
CC(C)CC1=NN2C(=N)/C(=C/c3cccs3)C(=O)N=C2S1 | 98
CN1CCN(S(=O)(=O)c2ccc(Br)cc2)CC1 | 101
CN(C)c1ccc(NC(=O)COC(=O)Cc2ccc(Br)cc2)cc1 | 84
O=C(CCSc1nc(-c2ccco2)cc(C(F)(F)F)n1)NCCc1ccccc1 | 99
O=C(CSc1nnc2c(n1)[nH]c1ccccc12)NCc1ccco1 | 100
O=C(O)CC(c1ccccc1)n1cnnn1 (stereo not drawn) | 107
COc1ccc(CCn2c(N)cc(=O)[nH]c2=O)cc1OC | 99
COc1ccc(C2NN=C3c4[nH]c5ccc(C)cc5c4CCC32)cc1 (stereo not drawn) | 100
COc1ccc(S(=O)(=O)N2CCCCC2C(=O)O)cc1OC (stereo not drawn) | 96
O=C(NO)c1cc(OCC(F)(F)F)ccc1OCC(F)(F)F | 92
O=C(NCCOc1ccccc1)c1ccccc1Cl | 100
O=C(COC(=O)C1(c2ccc(F)cc2)CCCC1)NCc1ccco1 | 99
CC1CCCN(CCCNC(=O)C2CCCN(c3ncnc4c3nc3n4CCCCC3)C2)C1 (stereo not drawn) | 101
O=c1onc(-c2ccccc2)n1-c1cccc(C(F)(F)F)c1 | 96
COc1cc(Cc2cc(OC)c(C)cc2OC)c(OC)cc1C | 108
ClCc1nc(Cl)c2c3c(sc2n1)CCCC3 | 100
Cc1cc(N2OCc3ccccc3CO2)ccc1N | 103
CCc1ccc(NC(=S)N(CCCN2CCCC2)Cc2ccco2)cc1 | 102
Cc1c(CCNC2=CC(=O)OC23CCCCC3)c2ccccc2n1C | 97
CC(=O)Nc1ccc(-n2nncc2-c2ccco2)cc1 | 100
NS(=O)(=O)c1ccc2c(c1)C1C=CCC1C(C1CC=CCC1)N2 (stereo not drawn) | 100
COC(=O)c1cc(S(=O)(=O)N2c3ccccc3CC2C)cn1C (stereo not drawn) | 102
O=C(Cc1ccccc1)N1CCN(C2CCCCC2)CC1 | 100
S=c1oc2ccc(Cl)cc2n1Cc1ccccc1 | 104
COC(=O)c1ccc2c(=O)n3nc(N)sc3nc2c1 | 99
O=C1c2ccccc2C(=O)N1CN1CCCCC1 | 81
Cc1ccc2nc(NCCO)[nH]c2c1 | 93
Cc1ccc2cc3cc(C(=O)N4CCN(c5cc(Cl)ccc5C)CC4)oc3nc2c1 | 93
Cc1ccc(N2C3=C(C(=O)CC(C)(C)C3)C(c3cnn(C)c3)C3=C2CC(C)(C)CC3=O)cc1 | 100
NC(=O)Cc1nc2ccccc2[nH]1 | 91
CC1(O)N(CCc2ccccc2)C(=O)OC12CCCCC2 (stereo not drawn) | 100
C(=Nc1ccccc1)c1ccc(Oc2ccccc2)cc1 | 101
O=C(NCc1ccccc1)c1cc(-c2ccccc2)n[nH]1 | 95
CNc1ccccc1C(C)(C)c1cc(-c2cccs2)n[nH]1 | 96
Oc1ccc(-c2ccccc2)cc1CN1CCN(c2ccccc2)CC1 | 101
Nc1nc(-c2ccc(NC(=O)c3ccccc3)cc2)cs1 | 103
CC(C)c1ccc(NC(=O)C(c2ccccc2)N(C)c2ccccc2)cc1 (stereo not drawn) | 101
NC(=O)CC1C=CS(=O)(=O)C1 (stereo not drawn) | 106
O=C(NC1CCCCC1)C(c1ccccc1)N1CCc2ccccc21 (stereo not drawn) | 105
CCc1c(C)sc(NC(=O)c2cccs2)c1C(N)=O | 99
COc1ccc(-c2nc(C)c(CCNS(=O)(=O)c3ccc(Cl)s3)s2)cc1OC | 97
O=c1oc2ccc(Cl)cc2cc1-c1nc2ccccc2s1 | 102
O=C(NCCO)c1cc2cc(Br)ccc2oc1=O | 98
COc1cccc(C2Nc3cccc4cccc(c34)N2)c1O | 102
CCn1c(NC(=O)COc2cccc(C(F)(F)F)c2)nc2ccccc21 | 99
O=C(CCCN1C(=O)c2ccccc2Sc2ncccc21)NCc1ccccc1Cl | 98
Cc1ccc(C(=O)C(C)C2c3cc(Br)ccc3OC(=O)C2C(=O)c2ccccc2)cc1 (stereo not drawn) | 96
Cc1ccc(Nc2nc(CSc3nc4ccccc4s3)cc(=O)[nH]2)cc1 | 100
CC1CCN(C(=O)COC(=O)c2ccc(-c3ccccc3)cc2)CC1 | 100
CON | 99

Carrying on:
Structure | VACV E9 pol inh
O=C(NCCOC12CC3CC(CC(C3)C1)C2)c1cc2ccccc2oc1=O | 100
CN(C)CC(C)(O)c1ccc(Br)cc1 (stereo not drawn) | 90
O=C1CCCN2N=C(SCC(=O)N3CCc4ccccc43)SC2=N1 | 99
CCCNc1nc2ccccn2c(=O)c1/C=C1\SC(=S)NC1=O | 100
COc1cccc(-c2cc(C(=O)N3CCN(c4cc(C)ccc4C)CC3)[nH]n2)c1 | 106
Cc1ccc(C(=O)O)c2c1N[C@H](c1ccccc1Cl)C1CC=CC21 (stereo partly drawn) | 74
O=C1NCCCC1C(=O)Nc1cccc(C(F)(F)F)c1 (stereo not drawn) | 93
Cc1ccc(CN2C(=O)c3ccccc3Sc3ccc(C(=O)NCCN4CCOCC4)cc32)cc1 | 106
Clc1ccc(Cn2c(/N=C/c3ccc4c(c3)OCO4)nc3ccccc32)cc1 | 100
COc1cccc(CNC(=O)c2ccc3nc(SCc4ccc(F)cc4)n(C)c3c2)c1 | 102
Cc1nc(COc2ccc(C(C)(C)C)cc2)sc1C(=O)NN | 101
O=C(Nc1ccc2[nH]c(=O)[nH]c2c1)C(F)(F)F | 104
COC(=O)Nc1ccc2c(c1)ncn2C1CCCCC1 | 100
COc1ccc(C2(CNC(=O)CCC(=O)O)CCOCC2)cc1 | 108
CCCN1C(=O)/C(=C/C=C2/Oc3ccccc3N2CCC(=O)O)N(CCO)C1=S | 100
CCOC(=O)Nc1cc(=O)c2ccccc2o1 | 100
C#CCCCCCCCCCCCCCCCC(=O)O | 101
CCOc1ccc(Nc2nc3ccccc3s2)cc1 | 103
CCc1ccccc1NC(=O)CCCOc1cc(=O)n(C)c2ccccc12 | 87
CC1(C)CC(=O)C2=C(C1)Oc1ccccc1C2CC(=O)c1ccc(O)cc1 (stereo not drawn) | 92
CC1CC(Nc2ccccc2)c2ccccc2N1C(=O)c1ccccc1F (stereo not drawn) | 100
CCC[n+]1ccc(-c2c[nH]c3ccccc23)cc1 | 97
COc1ccc(N=C(C)c2c(C(F)(F)F)[nH]n(-c3nc4ccccc4s3)c2=O)cc1OC | 100
Cc1ccccc1NS(=O)(=O)N(C)C | 101
c1ccc2c(Cc3c[nH]c4ccccc34)c[nH]c2c1 | 100
O=C(c1c(F)cccc1Cl)N1CCN(Cc2ccc3c(c2)OCO3)CC1 | 88
COC(=O)c1cc(Br)ccc1OC(=O)/C=C/c1ccccc1 | 100
CCN1C(=O)/C(=C/N(C)c2ccccc2)OC1=S | 101
Cc1ccc2nc(-c3ccccc3)cc(C(=O)NCc3ccccc3)c2c1 | 100
CCOC(=O)C1CCCN(C(=O)c2cccc(Oc3ccccc3)c2)C1 (stereo not drawn) | 100
COc1cccc2cc(-c3nc4sc(C(=O)Nc5cccc(F)c5)c(C)c4c(=O)[nH]3)c(=O)oc12 | 101
CSc1nsc(SC)c1NC(=O)Nc1ccccn1 | 100
O=C(c1snc2ccc(Cl)cc12)N1CCc2ccccc2C1 | 103
Cn1c(O)c(/C=N/N2CCOCC2)c2ccccc21 | 99
CCN1CCN(C(=O)c2ccc(/C=C3/Sc4ccccc4N(Cc4ccccc4C)C3=O)cc2)CC1 | 87
CC(NCc1ccccc1)C1CC1 (stereo not drawn) | 100
CCOC(=O)N1CCN(CCC(=O)c2ccc(OC)cc2)CC1 | 100
Brc1ccc(NCc2c[nH]c3ccccc23)cc1 | 97
O=C(O)c1cc2c(s1)CCCC2 | 96
COCc1[nH]nc2c1C1(C(=O)Nc3ccccc31)C(C#N)=C(N)O2 (stereo not drawn) | 84
Cc1ccc(C(=O)NC(=O)OC[C@@H]2CCCN3CCCCC23)cc1 (stereo partly drawn) | 100
c1ccc2c(c1)CCc1c-2nc2ccccc2c1N1CCOCC1 | 89
COc1cc(C(=O)NCc2nnc(SCC(=O)N3CCc4ccccc43)o2)cc(OC)c1OC | 103
O=C(O)CCc1nc2ccccc2s1 | 99
CCc1ccc(NC(=O)C(C)OC(=O)c2c(F)cccc2F)cc1 (stereo not drawn) | 99
CC(=O)Nc1ccc(NC(=O)CCCc2c[nH]c3ccccc23)cc1 | 108
CSc1nc2ccc(NS(=O)(=O)c3ccccc3C(F)(F)F)cc2s1 | 93
O=C(CNc1ccc(Cl)cc1F)N1CCCc2ccccc21 | 101
O=C(O)CP(=S)(c1ccccc1)c1ccccc1 | 100
COc1ccc(C2=NC(c3ccccc3OC)NC(c3ccccc3O)C2)cc1 (stereo not drawn) | 81
CCn1c(SCC(=O)Nc2ccc(OC)cc2)nc2ccsc2c1=O | 98

Ordered by count of non-hydrogen atoms (descending): 10 of the compounds above.
Structure | VACV E9 pol inh
CCN1CCN(C(=O)c2ccc(/C=C3/Sc4ccccc4N(Cc4ccccc4C)C3=O)cc2)CC1 | 87
COc1cccc2cc(-c3nc4sc(C(=O)Nc5cccc(F)c5)c(C)c4c(=O)[nH]3)c(=O)oc12 | 101
COc1ccc(C2=NC(c3ccccc3OC)NC(c3ccccc3O)C2)cc1 (stereo not drawn) | 81
Cc1ccc2nc(-c3ccccc3)cc(C(=O)NCc3ccccc3)c2c1 | 100
CCOC(=O)C1CCCN(C(=O)c2cccc(Oc3ccccc3)c2)C1 (stereo not drawn) | 100
CSc1nc2ccc(NS(=O)(=O)c3ccccc3C(F)(F)F)cc2s1 | 93
COCc1[nH]nc2c1C1(C(=O)Nc3ccccc31)C(C#N)=C(N)O2 (stereo not drawn) | 84
O=C(CNc1ccc(Cl)cc1F)N1CCCc2ccccc21 | 101
CSc1nsc(SC)c1NC(=O)Nc1ccccn1 | 100
Brc1ccc(NCc2c[nH]c3ccccc23)cc1 | 97
